Screening results deposited in PubChem by several laboratories.
LANA-H2B inh: blocks KSHV LANA binding to histone H2A/H2B; cell-free LANA-H2A/H2B peptide, fluorescence polarization; 320,000 compounds, 0.6% hits; inhibition, % (no concentration beside the values); AID 2629; in the data active means inhibition mostly above about 10%, no sharp cut-off; inactive means mostly below about 6.7%;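 further: stock transfer was 7.5 nL into about 10 µL; 0% = median of vehicle wells and 100% = median of positive control wells; one replicate is shown; the record names a cut of 25% in any replicate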
MLL AF4-AF9 inh: blocks AF4 peptide binding to human AF9 | AlphaScreen, biotin-AF4 peptide binding to FLAG-AF9 | inhibition, % at 10 µM | 350,000 compounds, 0.47% hits | AID 651704;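 active means every replicate reaching a set inhibition limit, whatever the replicate mean, cut at about 25% in these data; inconclusive means mean inhibition reaches that limit but some replicates miss it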;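 further: 0% = plate neutral control median and 100% = total signal loss; the record names both 10 and 1 µM as test concentration; the first replicate is given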
Target sequence (P42568 whole entry, looked up): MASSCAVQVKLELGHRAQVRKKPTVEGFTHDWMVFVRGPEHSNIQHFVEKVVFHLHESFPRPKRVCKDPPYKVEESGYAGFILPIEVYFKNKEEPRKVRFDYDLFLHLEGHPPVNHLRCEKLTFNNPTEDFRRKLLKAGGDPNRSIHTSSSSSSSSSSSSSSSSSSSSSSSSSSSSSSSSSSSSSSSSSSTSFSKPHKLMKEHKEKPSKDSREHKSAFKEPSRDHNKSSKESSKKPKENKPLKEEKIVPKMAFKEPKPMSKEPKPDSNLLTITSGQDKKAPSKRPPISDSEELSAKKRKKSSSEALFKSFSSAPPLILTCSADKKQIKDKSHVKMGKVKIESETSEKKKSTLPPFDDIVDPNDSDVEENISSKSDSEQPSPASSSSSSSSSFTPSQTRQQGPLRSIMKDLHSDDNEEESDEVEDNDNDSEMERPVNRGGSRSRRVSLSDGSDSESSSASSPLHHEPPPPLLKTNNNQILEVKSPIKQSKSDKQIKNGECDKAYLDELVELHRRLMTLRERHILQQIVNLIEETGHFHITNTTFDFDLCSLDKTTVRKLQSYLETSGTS
Bfl-1 A1 inh: inhibitors of the anti-apoptotic protein A1, read as caspase activation; AID 2462; MEF A1-2A-BIM cells, Caspase-Glo 3/7 luminescence, 3 h; percent of clofoctol response, vehicle zero; 330,000 compounds, 0.066% hits; caspase activation, % (no concentration beside the values);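 active means over half of replicate activation scores above 10%, or exactly half above 10 with the replicate mean above 10; inconclusive means replicate mean below 10 yet half the replicates above 10; inactive means over half of replicates below 10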;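 further: wells of about 30 µL received 50 nL stock; many hits fall short of the cut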
Beta cell apopt: beta cell apoptosis inhibition; INS-1E cytokine-induced death, ATP luminescence, 48 h; percent of positive-control rescue, neutral wells zero; protection from apoptosis, % (no concentration beside the values); 300,000 compounds, 0.8% hits; AID 435005;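 active means all replicates at 75% or more, or half of them and the mean; inconclusive means half reach 75% but not the mean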;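 further: 0% = cytokine-treated negative control wells and 100% = positive control rescue; higher means more ATP so stronger rescue from cytokine killing; wells of about 40 µL received 100 nL stock; the first replicate is given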
Calb FLC: C. albicans growth modulation with fluconazole | growth inhibition, % (test concentration not listed) | C. albicans CaCi-2 (fluconazole-resistant clinical isolate) + fluconazole, Alamar Blue growth, 48 h | 300,000 compounds, 0.57% hits;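 active means most replicates above 75%; inconclusive means exactly half above 75%; inactive means most below 75%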;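 further: all wells also contain fluconazole at 8 µg/ml as a sub-toxic cotreatment; 0% = median of DMSO wells and 100% = median of geldanamycin control wells; wells of about 8 µL received 7.5 nL stock; the first replicate is given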
T cruzi inh: T. cruzi replication inhibition; inhibition, % (no concentration beside the values); T. cruzi beta-gal in NIH3T3, luminescence, 90 h; 300,000 compounds, 1.4% hits;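 active means mean inhibition across valid replicates above about 55%, limit read from the data; inconclusive means mean below that limit but half or more replicates reach it; inactive means mean below it, under half of replicates reach it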;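 further: signal also drops with host cell toxicity which is not excluded here; 0% = plate median of DMSO wells and 100% = zero luminescence signal; higher percent means less beta-gal luminescence so fewer parasites; stock transfer was 50 nL into about 50 µL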
Vif TR-FRET: inhibitors of Vif binding to APOBEC3G peptide, primary screen, biochemical, TR-FRET, GST-Vif 1-94, biotin-A3G peptide, dose response retest (AID 1117319); inhibition, %, or IC50 in µM where a hit was titrated; 260,000 compounds, 0.57% hits; TR-FRET GST-Vif / biotin-A3G peptide binding; higher % means a stronger effect; test concentration not given here; strong numbers were not always called active;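 active means above the screen mean plus three standard deviations and confirmed in dose response; inconclusive means results disagree or hit not tested in dose response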;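 further: Vif residues 1-94 fused to GST binding biotinylated APOBEC3G peptide 110-148; 0% = full assay without inhibitor and 100% = GST in place of GST-Vif; retest series ran down from 100 µM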
RanGTP-Imp inh: disruptors of Ran-importin-beta complex formation – biochemical, FRET, CFP-Ran, YFP-importin-beta, homogeneous, primary screen; inhibition, % (test concentration not listed); AID 2216; 300,000 compounds, 1.1% hits; cell-free CFP-Ran/YFP-importin-beta FRET ratio;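 active means most replicates above 15%; inconclusive means exactly half above 15%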;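 further: 0% = DMSO wells and 100% = Ran loaded with GDP instead of GTP; wells of about 40 µL received 100 nL stock; the first replicate is given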
* = called active by the depositor; u = inconclusive; x = not tested or not shown.

Below each compound: LANA-H2B inh	MLL AF4-AF9 inh	Bfl-1 A1 inh	Beta cell apopt	Calb FLC	T cruzi inh	Vif TR-FRET	RanGTP-Imp inh
CCOc1ccc(C2CC(c3cccc(OC)c3)n3nc(N)nc3N2)cc1 (stereo not drawn)
  -4.4	5.6	0.4	-20	5	12	-1%	-1.4
N#CC1=C(O)CCCn2c1nc1ccccc1c2=O
  2.2	x	-4.6	0	-10	-14	7%	-0.6
Clc1ccccc1OCCCCN1CCCC1
  2.0	-7.0	0.4	0	-9	22	3%	1.8
CC(C)NC(=O)CSCc1ccccc1Cl
  -3.6	x	-0.7	-4	1	-9	2%	0.8
COC(=O)C(Cc1ccccc1)NC(=O)CNC(=O)c1sc2ccccc2c1Cl (stereo not drawn)
  2.9	1.5	0.7	-2	5	8	x	u
CN(C)c1ccc(C(O)P(=O)(OC2CCCCC2)OC2CCCCC2)cc1 (stereo not drawn)
  2.9	5.2	-0.3	-6	4	21	6%	2.5
CSc1ccc(CN2CCN(C(=O)c3ccc([N+](=O)[O-])cc3)CC2)cc1
  -1.1	4.6	0.2	4	-8	17	5%	6.8
Cc1nc(-c2ccccc2)c(Cc2ccccc2O)c(=O)[nH]1
  -5.3	-1.3	-0.4	-2	4	8	0%	-2.5
Nc1ccccc1/C=N\N=C/c1ccccc1N
  -7.0	4.3	-5.7	2	-5	-2	x	1.5
CCCCn1c(N)c(Sc2ccc(C)cc2)c(=O)[nH]c1=O
  3.5	x	0.9	-5	-3	-4	-3%	4.2
CC1CCN(c2cc(N3CCN(C(=O)c4ccc(F)c(F)c4)CC3)c([N+](=O)[O-])cc2F)CC1
  1.7	x	0.2	-10	-7	5	x	-1.9
O=C(Nc1ccc2oc(-c3cccnc3)nc2c1)c1ccc(Br)o1
  2.1	x	0.8	6	9	1	-6%	4.9
CCC1C/C(=C/c2ccco2)C(=O)/C(=C/c2ccco2)C1 (stereo not drawn)
  6.7	x	0.2	7	x	x	2.6µM*	x
COc1cc(NC(=O)c2cccnc2Sc2ccc(C)c(C)c2)cc(OC)c1OC
  -2.8	x	-0.7	-14	15	5	x	-5.2
O=C(CSc1ccc(-c2ccccn2)nn1)Nc1ccc(F)c(F)c1
  2.2	0.3	-0.2	2	-5	29	x	5.4
NC(Cc1ccc2nonc2c1)C(=O)O (stereo not drawn)
  0.3	x	0.2	6	-1	-9	17%	u
CN(C(=O)CCc1nnc(Cc2ccc(-c3ccccc3)cc2)o1)C1CCOCC1
  1.6	-16	0.4	2	-5	-3	14%	-4.0
COc1ccc(C(C)C)cc1S(=O)(=O)N1CCN(c2ccccc2)CC1
  3.6	0.0	0.3	-4	16	19	x	-2.6
Cc1cccc(OCc2ccc(C(=O)Nc3cc(C)on3)o2)c1
  1.8	-2.1	-0.8	-3	12	1	6%	6.6
CC(C)CC(=O)N1CCC(O)(CS(=O)(=O)c2ccc(Cl)c(Cl)c2)CC1
  -3.2	-1.3	1.5	-4	-1	13	-8%	-1.7
CCN(CCCNC(=O)c1[nH]c(C)c(C(C)=O)c1C)c1ccccc1
  -3.2	x	0.9	3	2	-1	3%	3.0
CCCCNC(=O)Cn1nc(-c2ccc(C)cc2)ccc1=O
  1.9	x	0.5	-7	7	-11	-4%	-3.9
O=C(Cn1c2[n+](c3ccc(C(F)(F)F)cc31)CCCCC2)Nc1c(F)cccc1F
  -7.2	-0.6	-0.2	-1	13	-13	71%	0.4
O=C(O)/C(=C\c1ccc(Cl)c([N+](=O)[O-])c1)c1ccc(S(=O)(=O)N2CCCC2)s1
  5.3	-2.6	0.8	-3	x	x	27%	x
O=C(Nc1nnc(S(=O)(=O)N2CCCC2)s1)c1ccccc1F
  -5.1	0.9	-0.4	0	-4	1	x	-2.2
CCOC(=O)C1CCN(Cc2ccccc2C)CC1
  3.6	-62	0.4	1	-15	11	3%	-4.7
Cc1ccc(CN2CCN(Cc3c(C)nn(C(C)C)c3C)CC2CCO)o1 (stereo not drawn)
  -4.0	0.0	0.3	-1	5	22	10%	0.3
Fc1ccc(Cn2ccc(-c3cnc(-c4ccccc4)s3)n2)cc1
  -0.8	x	-2.3	-9	-3	28	3%	-1.5
CCN1CCN(c2c(S(=O)(=O)c3ccc(C)c(C)c3)cnc3ccc(F)cc23)CC1
  0.2	0.1	0.9	-13	-3	4	x	2.1
Cc1ccnc(NC2CCCCC2)c1
  -1.7	0.0	-0.7	5	0	-1	-1%	u
Cc1cc(C(=O)NCC(=O)Nc2ccc(F)c(F)c2)c(C)o1
  1.8	0.1	1.6	-2	x	x	-6%	x
Cc1nc2ccccn2c1C(=O)N/N=C/c1ccccc1[N+](=O)[O-]
  -2.5	0.7	1.7	2	5	-8	13%	1.8
O=C(NCCNC(=O)c1ccccc1O)c1ccccc1O
  -2.1	1.6	0.1	2	8	-6	x	4.4
COc1ccc(S(N)(=O)=O)cc1C(=O)NCCCN1CCN(c2cccc(Cl)c2)CC1
  4.1	x	-0.2	-1	0	-11	-1%	-0.7
COc1ccc(/C=C2/SC(=O)N(CCC(=O)Nc3ccccc3)C2=O)cc1OC
  -2.5	-2.2	-0.4	3	1	-6	x	-0.7
C=CCNC(=O)c1cc(=O)c2ccccc2o1
  1.4	x	-1.0	-11	-4	-21	5%	2.2
COc1ccc(-n2nc(C(=O)N(C)C3CCCCC3)c3ccccc3c2=O)c(OC)c1
  -0.8	-0.6	-1.1	-6	4	4	11%	0.9
Cc1cc(=O)[nH]c(S)c1C#N
  -3.1	x	0.5	-2	-1	7	0%	1.5
CCCC1CCC(=NNC(=S)NCCc2ccccc2)CC1 (stereo not drawn)
  1.9	6.2	0.1	-7	13	-3	-8%	1.6
CC(C)c1nnc(NC(=O)c2sc3ccccc3c2Cl)s1
  3.6	x	-0.8	3	48	-19	-3%	1.4
CCOC(=O)C1CCN(C(=O)c2ccc(OC)cc2OC)CC1
  1.8	x	0.5	7	4	-14	73%	5.4
CCOc1ccccc1NC(=O)CSc1nnc(C2CC2)n1CC
  -3.2	0.3	-0.5	0	2	-3	x	6.9
O=C(COC(=O)CNC(=O)c1ccccc1)NCCCc1ccccc1
  -0.5	0.0	1.2	-9	x	x	-6%	x
Cc1ccc2nc(NCc3ccccc3)c(C=NCc3ccccc3)c(=O)n2c1
  -2.7	1.7	-0.3	-6	1	5	-13%	0.9
COc1ccc(OC)c(NC(=O)COC(=O)C2CCN(C(=O)c3ccc(Cl)cc3)CC2)c1
  0.4	4.0	-0.3	-1	1	-11	-2%	1.4
CCOc1cccc(-c2cc(=O)[nH][nH]2)c1
  1.8	x	-0.7	-3	1	-5	74%	-4.7
Cc1ccc(Nc2nc(-c3cccnc3)cs2)cc1C
  -1.0	-0.6	-0.1	-1	-3	47	x	-1.7
COc1cc(C)ccc1NC(=O)c1ccc(S(=O)(=O)N2CCOCC2)cc1
  -2.1	x	-0.3	-5	u	-2	18%	2.0
COc1ccc2[nH]c(=S)[nH]c2c1
  -5.3	x	0.5	-8	2	x	7%	4.1
O=C(Nc1ccncc1)c1cc(-c2ccccn2)nc2ccccc12
  -0.6	-1.6	-0.1	1	-3	1	x	-3.3
CCc1ccc(NC(=O)c2cnn3c(C(F)F)cc(C)nc23)cc1
  -3.9	0.9	-0.2	-2	u	4	4%	-0.2
COc1cnc(-c2ccccn2)nc1Oc1c(C)cccc1C
  0.3	4.3	-0.1	x	52	-51	7%	0.5
COCc1c(C(=O)OCc2nnc(-c3ccc([N+](=O)[O-])cc3)o2)oc2ccccc12
  3.1	-2.8	1.0	1	x	x	-1%	x
COCc1ccc(C(=O)N2CCCC(C(=O)c3cccc(C(F)(F)F)c3)C2)o1 (stereo not drawn)
  1.2	3.0	-0.4	-11	u	4	-6%	3.3
CC(C)CC1NC(=O)N(CC(=O)Nc2cc([N+](=O)[O-])ccc2F)C1=O (stereo not drawn)
  8.1	2.4	-0.2	-3	x	x	x	x
O=C(O)CCCN1C(=O)/C(=C\C(Cl)=C\c2ccccc2)SC1=S
  -0.5	-4.5	1.9	-20	63	-12	2.5µM*	-1.9
COc1ccc(NC(=O)CSc2n[nH]c(=O)n2Cc2ccccc2)cc1Cl
  4.2	0.8	-0.3	1	15	0	-2%	6.9
COc1cc(C(C(=O)NC2CCCCC2)N(C(=O)Cc2c[nH]c3ccccc23)c2ccc(C)cc2)cc(OC)c1OC (stereo not drawn)
  -14	2.2	0.0	-11	50	34	x	13
CCN1C(=O)NC(c2ccccc2)C1=O (stereo not drawn)
  -2.3	-3.5	0.9	-1	x	x	x	x
Cc1cc(C)c(OCC(=O)N/N=C/c2ccc3c(c2)OCO3)c(C)c1
  x	x	-0.3	-3	-2	-13	17%	-1.2

Further entries:
Below each compound: LANA-H2B inh	MLL AF4-AF9 inh	Bfl-1 A1 inh	Beta cell apopt	Calb FLC	T cruzi inh	Vif TR-FRET	RanGTP-Imp inh
CCC(C)[C@H](NC(=O)[C@@H]1CSC2c3ccccc3C(=O)N21)C(=O)NCc1ccco1 (stereo partly drawn)
  -1.3	-1.6	0.7	-6	3	1	-2%	0.2
CC(=O)C(C)Oc1ccc2c3c(c(=O)oc2c1C)CCCC3 (stereo not drawn)
  2.2	x	0.5	9	16	19	-2%	4.4
Cc1ccsc1C(=O)NC(C)c1ccccc1 (stereo not drawn)
  2.5	0.9	-0.4	-7	-1	-4	x	4.3
CCCC(C(=O)Nc1ccncc1)c1ccccc1 (stereo not drawn)
  -1.7	-3.7	-0.5	3	-30	-12	-1%	0.6
CC(C)CNC(=O)c1ccccc1NC(=O)CSCc1ccccc1
  -0.7	x	0.2	-4	-40	8	1%	-0.2
O=C1CSC(=S)N1/N=C/c1cccnc1
  1.5	0.5	0.5	9	-21	-27	2%	-0.2
CCOCCCn1c(=N)c(S(=O)(=O)c2ccc(C)cc2)cc2c(=O)n3cc(C)ccc3nc21
  7.1	3.5	0.2	-11	-4	12	x	158*

Hits appear at their usual frequency; overall some 4.3% were active at least once.
